# Ran importin: inhibitors of Ran–importin-beta complex formation, primary screen, biochemical, CFP-Ran/YFP-importin-beta FRET, RCC1, cell-free (AID 434961); hit rate 0.2% among 7,700; inhibition, %; Regulator of chromosome condensation (Homo sapiens) + GTP-binding nuclear protein Ran …; CFP-Ran/YFP-importin-beta FRET, cell-free; stronger effect = higher value;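 active = more than half of the replicate wells above 15% inhibition; inconclusive = exactly half above it; inactive = fewer than half above it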;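 note: 0% = DMSO wells and 100% inhibition = RanGDP control wells on each plate; stock of unstated strength diluted about 400-fold; mean of two wells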
# * hit, by the source's call; ? = inconclusive.
Cc1noc(C)c1NC(=O)Nc1ccc2c(c1)C(=O)N([C@H](C)CO)C[C@@H](C)[C@@H](CN(C)C(=O)NC(C)C)OCCCC[C@@H](C)O2
  Ran importin = -0.9
CC(C)NC(=O)Nc1ccc2c(c1)C(=O)N([C@H](C)CO)C[C@H](C)[C@H](CN(C)S(=O)(=O)c1cccs1)OCCCC[C@@H](C)O2
  Ran importin = 2.1
CC(C)NC(=O)N(C)C[C@@H]1OCCCC[C@@H](C)Oc2ccc(NC(=O)Nc3ccc4c(c3)OCO4)cc2C(=O)N([C@H](C)CO)C[C@@H]1C
  Ran importin = 3.2
C[C@H]1CN([C@@H](C)CO)C(=O)Cc2cc(NS(C)(=O)=O)ccc2O[C@H]1CN(C)CC1CC1
  Ran importin = -8.4
C[C@@H]1CCCCO[C@@H](CN(C)C)[C@@H](C)CN([C@H](C)CO)C(=O)c2cc(NS(=O)(=O)c3ccc(Cl)cc3)ccc2O1
  Ran importin = -1.8
C[C@@H]1CN([C@@H](C)CO)C(=O)Cc2cc(NC(=O)Nc3ccc(F)cc3)ccc2O[C@H]1CN(C)CC1CC1
  Ran importin = -2.7
C[C@H]1CN([C@@H](C)CO)C(=O)c2cccc(NC(=O)NC3CCCCC3)c2O[C@H]1CN(C)C(=O)Nc1ccccc1
  Ran importin = -0.6
C[C@H](CO)N1C[C@H](C)[C@H](CN(C)C(=O)Nc2cccc3ccccc23)Oc2ccc(NC(=O)CCN3CCOCC3)cc2CC1=O
  Ran importin = -9.7
C[C@@H]1CCCCO[C@H](CN(C)C(=O)c2ccncc2)[C@H](C)CN([C@@H](C)CO)C(=O)c2cc(NS(C)(=O)=O)ccc2O1
  Ran importin = -0.5
C[C@H](CO)N1C[C@H](C)[C@@H](CN(C)Cc2ccncc2)OCc2cnnn2CCCC1=O
  Ran importin = 1.2
CC(C)NC(=O)N(C)C[C@H]1OCCCC[C@@H](C)Oc2ccc(NC(=O)CCCN(C)C)cc2C(=O)N([C@@H](C)CO)C[C@@H]1C
  Ran importin = -5.4
C[C@H](CO)N1C[C@H](C)[C@@H](CN(C)C(=O)Nc2cccc3ccccc23)OCc2cn(nn2)CCCC1=O
  Ran importin = -1.1
C[C@@H]1CN([C@@H](C)CO)C(=O)c2cccc(NS(=O)(=O)c3ccc(Cl)cc3)c2O[C@H]1CN(C)C
  Ran importin = 1.5
C[C@H](CO)N1C[C@H](C)[C@H](CN(C)S(=O)(=O)c2ccc(F)cc2)Oc2ccc(NC(=O)Nc3ccc4c(c3)OCO4)cc2C1=O
  Ran importin = -1.5
C[C@H](CO)N1C[C@H](C)[C@@H](CN(C)C)OCCCC[C@H](C)Oc2ccc(NS(=O)(=O)c3ccc(Cl)cc3)cc2C1=O
  Ran importin = -0.5
C[C@@H]1CN([C@H](C)CO)C(=O)c2cccc(N(C)C)c2O[C@H]1CN(C)Cc1ccccc1
  Ran importin = -1.1
C[C@H](CO)N1C[C@H](C)[C@H](CN(C)Cc2ccc(C(F)(F)F)cc2)Oc2c(cccc2N(C)C)C1=O
  Ran importin = -0.3
C[C@H](CO)N1C[C@H](C)[C@@H](CN(C)C(=O)c2ccncc2)OCCCC[C@H](C)Oc2ccc(NC(=O)CCC(F)(F)F)cc2C1=O
  Ran importin = ?
C[C@H](CO)N1C[C@H](C)[C@@H](CN(C)Cc2ccc(C(F)(F)F)cc2)Oc2ccc(NC(=O)Cc3ccccc3)cc2CC1=O
  Ran importin = -5.5
C[C@H]1CN([C@@H](C)CO)C(=O)CCCn2cc(nn2)CO[C@@H]1CN(C)Cc1ccc2c(c1)OCO2
  Ran importin = ?
C[C@@H]1CCCCO[C@H](CN(C)C(=O)Nc2ccccc2)[C@H](C)CN([C@H](C)CO)C(=O)c2cc(NC(=O)c3ccccc3)ccc2O1
  Ran importin = 0.8
C[C@@H]1CN([C@@H](C)CO)C(=O)CCCn2cc(nn2)CO[C@H]1CN(C)C(=O)Nc1ccc2c(c1)OCO2
  Ran importin = 7.4
C[C@@H]1CCCCO[C@@H](CN(C)Cc2ccccc2)[C@H](C)CN([C@H](C)CO)C(=O)c2cc(NC(=O)CCCN(C)C)ccc2O1
  Ran importin = 0.3
C[C@H]1CN([C@@H](C)CO)C(=O)c2cc(NC(=O)NC3CCCCC3)ccc2O[C@@H]1CN(C)C(=O)NC1CCCCC1
  Ran importin = -2.2
COc1ccc(S(=O)(=O)N(C)C[C@H]2Oc3ccc(NC(=O)Nc4ccc(C(F)(F)F)cc4)cc3C(=O)N([C@@H](C)CO)C[C@@H]2C)cc1
  Ran importin = -2.7

Cc1noc(C)c1S(=O)(=O)Nc1ccc2c(c1)C(=O)N([C@@H](C)CO)C[C@@H](C)[C@H](CN(C)C(=O)c1ccncc1)OCCCC[C@H](C)O2
  Ran importin = -5.7
C[C@@H]1CN([C@H](C)CO)C(=O)c2cc(NC(=O)Nc3ccc(F)cc3)ccc2O[C@@H](C)CCCCO[C@H]1CN(C)C(=O)c1ccccc1
  Ran importin = 4.1
COc1ccccc1CN(C)C[C@H]1OCc2cnnn2CCCC(=O)N([C@H](C)CO)C[C@@H]1C
  Ran importin = 0.6
CC(C)NC(=O)N(C)C[C@@H]1OCCCC[C@H](C)Oc2ccc(NC(=O)c3ccccc3)cc2C(=O)N([C@@H](C)CO)C[C@@H]1C
  Ran importin = 2.3
CC(C)NC(=O)N(C)C[C@@H]1OCCCC[C@H](C)Oc2ccc(NC(=O)Nc3ccc(F)cc3)cc2C(=O)N([C@@H](C)CO)C[C@H]1C
  Ran importin = 0.4
COc1ccc(CN(C)C[C@H]2Oc3c(NC(=O)Nc4ccc(F)cc4)cccc3C(=O)N([C@H](C)CO)C[C@@H]2C)cc1
  Ran importin = 5.5
C[C@@H]1CCCCO[C@H](CN(C)C(=O)CCCN(C)C)[C@@H](C)CN([C@@H](C)CO)C(=O)c2cc(NC(=O)c3ccncc3)ccc2O1
  Ran importin = 1.5
C[C@H](CO)N1C[C@H](C)[C@H](CN(C)C(=O)Nc2ccc(F)cc2)Oc2c(NC(=O)NC3CCCCC3)cccc2C1=O
  Ran importin = -5.1
C[C@@H]1CN([C@H](C)CO)C(=O)c2cc(NC(=O)CCC(F)(F)F)ccc2O[C@H]1CN(C)C
  Ran importin = -4.3
C[C@H](CO)N1C[C@H](C)[C@@H](CN(C)CC2CC2)Oc2ccc(NC(=O)Nc3cccc4ccccc34)cc2CC1=O
  Ran importin = -6.2
Cc1noc(C)c1NC(=O)N(C)C[C@H]1Oc2ccc(NC(=O)NC3CCCCC3)cc2C(=O)N([C@H](C)CO)C[C@H]1C
  Ran importin = -0.1
Cc1noc(C)c1S(=O)(=O)Nc1ccc2c(c1)C(=O)N([C@@H](C)CO)C[C@H](C)[C@@H](CN(C)C(=O)Nc1ccccc1)OCCCC[C@@H](C)O2
  Ran importin = 0.5
C[C@@H]1CN([C@@H](C)CO)C(=O)c2cc(NC(=O)Nc3ccccc3)ccc2O[C@@H](C)CCCCO[C@@H]1CN(C)Cc1ccncc1
  Ran importin = -1.6
C[C@H]1CN([C@@H](C)CO)C(=O)Cc2cc(NC(=O)NC3CCCCC3)ccc2O[C@H]1CN(C)Cc1ccccc1
  Ran importin = -2.6
COc1ccc(S(=O)(=O)N(C)C[C@H]2Oc3c(NS(=O)(=O)c4ccccc4)cccc3C(=O)N([C@H](C)CO)C[C@H]2C)cc1
  Ran importin = -0.6
C[C@@H]1CN([C@@H](C)CO)C(=O)c2cccc(NC(=O)Nc3ccc(C(F)(F)F)cc3)c2O[C@H]1CN(C)S(=O)(=O)c1ccccc1
  Ran importin = 4.6
C[C@H]1CN([C@@H](C)CO)C(=O)c2cccc(NS(=O)(=O)c3ccccc3)c2O[C@H]1CN(C)C(=O)Nc1ccc(C(F)(F)F)cc1
  Ran importin = 3.7
Cc1ccc(S(=O)(=O)Nc2ccc3c(c2)CC(=O)N([C@@H](C)CO)C[C@H](C)[C@H](CN(C)Cc2ccncc2)O3)cc1
  Ran importin = -1.7
C[C@H]1CCCCO[C@@H](CN(C)CC2CC2)[C@@H](C)CN([C@@H](C)CO)C(=O)c2cc(NS(=O)(=O)c3ccccc3)ccc2O1
  Ran importin = -1.8
C[C@@H]1CCCCO[C@H](CN(C)C)[C@@H](C)CN([C@@H](C)CO)C(=O)c2cc(NC(=O)Cc3ccccc3)ccc2O1
  Ran importin = 2.0
C[C@H]1CN([C@@H](C)CO)C(=O)c2cccc(NS(=O)(=O)c3cccs3)c2O[C@H]1CN(C)Cc1ccc(-c2ccccc2)cc1
  Ran importin = -1.5
CNC[C@@H]1Oc2ccc(NC(=O)Nc3ccc(F)cc3)cc2CC(=O)N([C@H](C)CO)C[C@@H]1C
  Ran importin = -2.4
CNC[C@@H]1Oc2c(NC(=O)c3ccc(-c4nccs4)cc3)cccc2C(=O)N([C@H](C)CO)C[C@H]1C
  Ran importin = 5.7
C[C@@H]1CN([C@@H](C)CO)C(=O)c2cc(NC(=O)c3ccccc3)ccc2O[C@@H](C)CCCCO[C@H]1CN(C)C(=O)Nc1ccccc1
  Ran importin = -1.9
COc1ccc(CN(C)C[C@@H]2Oc3ccc(NC(=O)Cc4ccccc4)cc3CC(=O)N([C@@H](C)CO)C[C@@H]2C)cc1
  Ran importin = -5.8

Cc1noc(C)c1S(=O)(=O)Nc1ccc2c(c1)C(=O)N([C@@H](C)CO)C[C@@H](C)[C@@H](CN(C)C(=O)NC(C)C)OCCCC[C@@H](C)O2
  Ran importin = -2.1
COc1ccc(S(=O)(=O)N(C)C[C@H]2Oc3ccc(NC(=O)CCC(F)(F)F)cc3C(=O)N([C@@H](C)CO)C[C@H]2C)cc1
  Ran importin = 1.3
C[C@@H]1CN([C@H](C)CO)C(=O)c2cccc(NC(=O)Nc3ccc(F)cc3)c2O[C@@H]1CN(C)Cc1ccc(C(=O)O)cc1
  Ran importin = -3.4
C[C@@H]1CCCCO[C@@H](CN(C)S(=O)(=O)c2ccccc2)[C@@H](C)CN([C@@H](C)CO)C(=O)c2cc(NS(=O)(=O)c3cn(C)cn3)ccc2O1
  Ran importin = -1.6
C[C@@H]1CN([C@@H](C)CO)C(=O)c2cc(NC(=O)Nc3ccccc3)ccc2O[C@H]1CN(C)C(=O)Nc1ccccc1
  Ran importin = 2.8
C[C@@H]1CN([C@@H](C)CO)C(=O)c2cccc(NC(=O)Nc3ccc(C(F)(F)F)cc3)c2O[C@@H]1CN(C)S(=O)(=O)c1cn(C)cn1
  Ran importin = -1.9
COc1ccccc1S(=O)(=O)N(C)C[C@H]1OCc2cnnn2CCCC(=O)N([C@H](C)CO)C[C@@H]1C
  Ran importin = 2.8
COc1ccc(S(=O)(=O)Nc2cccc3c2O[C@H](CN(C)Cc2ccncc2)[C@@H](C)CN([C@@H](C)CO)C3=O)cc1
  Ran importin = 2.2
CC(C)NC(=O)Nc1ccc2c(c1)C(=O)N([C@@H](C)CO)C[C@@H](C)[C@H](CN(C)Cc1ccc(C(=O)O)cc1)OCCCC[C@H](C)O2
  Ran importin = 3.6
Cc1noc(C)c1NC(=O)N(C)C[C@@H]1Oc2ccc(NC(=O)C3CC3)cc2C(=O)N([C@H](C)CO)C[C@H]1C
  Ran importin = -2.7
CNC[C@@H]1OCCCC[C@@H](C)Oc2ccc(N(C)C)cc2C(=O)N([C@H](C)CO)C[C@H]1C
  Ran importin = -4.9
Cc1noc(C)c1S(=O)(=O)Nc1ccc2c(c1)C(=O)N([C@@H](C)CO)C[C@@H](C)[C@@H](CN(C)C)OCCCC[C@@H](C)O2
  Ran importin = 6.0
CC(C)NC(=O)N(C)C[C@H]1OCc2cn(nn2)CCCC(=O)N([C@@H](C)CO)C[C@@H]1C
  Ran importin = 2.7
CNC[C@@H]1OCCCC[C@@H](C)Oc2ccc(NC(=O)Nc3ccccc3)cc2C(=O)N([C@H](C)CO)C[C@@H]1C
  Ran importin = -2.1
COc1ccc(NC(=O)Nc2ccc3c(c2)C(=O)N([C@H](C)CO)C[C@@H](C)[C@H](CN(C)S(=O)(=O)c2ccc(OC)cc2)O3)cc1
  Ran importin = -1.7
COc1ccc(S(=O)(=O)Nc2ccc3c(c2)C(=O)N([C@@H](C)CO)C[C@H](C)[C@H](CN(C)S(=O)(=O)c2ccc(OC)cc2)O3)cc1
  Ran importin = 0.7
C[C@@H]1CN([C@@H](C)CO)C(=O)c2cccc(NC(=O)Nc3ccc(C(F)(F)F)cc3)c2O[C@@H]1CN(C)C(=O)NC1CCCCC1
  Ran importin = -0.5
C[C@@H]1CN([C@H](C)CO)C(=O)c2cccc(NS(C)(=O)=O)c2O[C@@H]1CN(C)Cc1ccccc1
  Ran importin = 3.1
CNC[C@@H]1Oc2c(NS(=O)(=O)c3cccs3)cccc2C(=O)N([C@H](C)CO)C[C@@H]1C
  Ran importin = 11.3
C[C@H]1CN([C@@H](C)CO)C(=O)Cc2cc(NC(=O)Nc3cccc4ccccc34)ccc2O[C@H]1CN(C)C(=O)Nc1cccc2ccccc12
  Ran importin = -4.9
C[C@H](CO)N1C[C@H](C)[C@H](CN(C)C(=O)Nc2ccc3c(c2)OCO3)Oc2ccc(NC(=O)CCN3CCOCC3)cc2CC1=O
  Ran importin = -1.5
Cc1noc(C)c1S(=O)(=O)N(C)C[C@H]1Oc2ccc(NS(=O)(=O)c3cccs3)cc2CC(=O)N([C@H](C)CO)C[C@@H]1C
  Ran importin = 3.0
C[C@@H]1CN([C@@H](C)CO)C(=O)Cc2cc(NC(=O)CCCN(C)C)ccc2O[C@@H]1CN(C)C
  Ran importin = 7.4

# For reference, part of the list above:
CNC[C@@H]1Oc2c(NS(=O)(=O)c3cccs3)cccc2C(=O)N([C@H](C)CO)C[C@@H]1C
  Ran importin = 11.3
C[C@H]1CN([C@@H](C)CO)C(=O)Cc2cc(NC(=O)Nc3cccc4ccccc34)ccc2O[C@H]1CN(C)C(=O)Nc1cccc2ccccc12
  Ran importin = -4.9
C[C@H](CO)N1C[C@H](C)[C@H](CN(C)C(=O)Nc2ccc3c(c2)OCO3)Oc2ccc(NC(=O)CCN3CCOCC3)cc2CC1=O
  Ran importin = -1.5
Cc1noc(C)c1S(=O)(=O)N(C)C[C@H]1Oc2ccc(NS(=O)(=O)c3cccs3)cc2CC(=O)N([C@H](C)CO)C[C@@H]1C
  Ran importin = 3.0
C[C@@H]1CN([C@@H](C)CO)C(=O)Cc2cc(NC(=O)CCCN(C)C)ccc2O[C@@H]1CN(C)C
  Ran importin = 7.4

# Compound activity: PubChem, Broad Institute

# The list is partial, so the mix of outcomes need not match the whole.
